Compound activity as filed in PubChem.
StopGo reporter: FMDV 2A StopGo reporter, luciferase signal | human cells with a luciferase reporter of 2A StopGo recoding; control for the full effect not named in the record | Potency, µM (highest dose often 57.9 µM), for inactives: top-dose signal change, negative = less light | 1.2% of 410,000 active; active = well fitted falling curve with a large enough effect; inconclusive = small, poorly fitted or top-dose-only effect; inactive = no such curve, though single readings can be large or run the other way; tested in HEK293T cells; further: nearly all actives have a fitted effect of over 45% in size; luciferase light after 4 h
Marburg entry inh: Marburg virus entry inhibition; Marburg virus pseudotyped entry inhibition, cell reporter; control for the full effect not named in the record; about a third of the inactives were read at about 46 µM; 1.8% of 300,000 active; Potency, µM (titrated, usually from 37.8 µM), for the others: at the top dose activity change, negative = inhibition, most hits filed as inhibitors; active = well fitted inhibition curve with a large enough effect; inconclusive = small, poorly fitted or top-dose-only effect, or effect the other way; inactive = flat fitted curve, though single readings scatter; tested in HEK293 cells; about a fifth of its hits are not listed in these tables; further: luciferase read-out
RE007 growth inh: less growth of the S. pombe RE007 Vpr strain | Potency, µM (titrated, usually from 92.2 µM), without a hit: at the highest dose activity change, negative = less growth | S. pombe RE007 Vpr strain, BacTiter-Glo ATP luminescence, 24 h; control for the full effect not named in the record | AID 651644 | 0.21% of 360,000 active; active = well fitted falling curve with a large enough effect; inconclusive = small, poorly fitted or top-dose-only effect; inactive = no such curve, though single readings can be large or run the other way;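 further: nearly all actives have a fitted effect of over 50% in size; the assay follows cell death caused by Vpr and the record does not say whether a fall means rescue or toxicity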
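Fission yeast RE007 carrying one integrated HIV-1 vpr copy, seeded at OD 0.01 in PMG+AL medium with 23 nL pinned compound. Grown 24 h at 30 degrees; viability read by BacTiter-Glo luminescence after 5 min.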
Lassa entry inh: inhibitors of Lassa virus binding or cell entry; Lassa virus pseudotype entry inhibition, cell reporter; control for the full effect not named in the record; Potency, µM (highest dose often 37.9 µM), inactives show at the highest dose activity change, negative = inhibition, actives largely listed as inhibitors; 1.2% of 300,000 active; AID 540256; active means well fitted inhibition curve with a large enough effect; inconclusive means small, poorly fitted or top-dose-only effect, or effect the other way; inactive means flat fitted curve, though single readings scatter; tested in HEK293 cells; further: nearly all actives have a fitted effect of over 50% in size; luciferase read-out
* hit, by the source's call; ? = inconclusive; . = no result given; [ ] = another dose, or the depositor's remark. On the % scale 0 is the no-effect control and ±100 the full control effect; potency means the concentration at half of the fitted maximal effect.

SMILES	StopGo reporter	Marburg entry inh	RE007 growth inh	Lassa entry inh
Cc1cccc(N2CCN(c3ncnc4c3nc3n4CCCCC3)CC2C)c1 (configuration not stated)	2.2µM*	.	.	?
COc1ccc(CCNC(=O)Cn2cc(S(=O)(=O)Cc3ccccc3Cl)c3ccccc32)cc1OC	-2%	.	.	-29%[46.1 µM]
O=C(NC1CC1)c1ccc(Cn2c(SCc3ccc(F)cc3)nc3cccnc32)cc1	16%	.	.	-1%[46.1 µM]
Cc1ccc(CNC(=O)C(CC(C)C)N2Cc3ccccc3C2=O)cc1 (configuration not stated)	-3%	.	.	12%[46.1 µM]
Cc1ccc(Cl)cc1NC(=O)N(Cc1ccc2c(c1)OCO2)C1CCN(Cc2ccccc2)CC1	-26%	.	.	?
COc1ccc(S(=O)(=O)c2cn(Cc3ccccc3)c3cc(N4CCCC4)c(F)cc3c2=O)cc1	-4%	.	.	-23%[46.1 µM]
COc1ccc(NS(=O)(=O)c2ccc3[nH]c4c(c3c2)CCCC4)c(OC)c1	-1%	.	.	?
COc1cc(OC)c(NC(=O)Cn2cnc3c(nc4n3CCCCC4)c2=O)cc1Cl	-18%	.	.	2%[46.1 µM]
COc1ccc(CNC(=O)COCc2cc(-c3cccs3)on2)cc1	-9%	.	.	?
O=S(=O)(Nc1cc(F)ccc1F)c1ccc2[nH]c3c(c2c1)CCCC3	39%[activator]	.	.	-10%[46.1 µM]
Oc1ccc(/C=N/Nc2cc(N3CCOCC3)nc(N3CCOCC3)n2)cc1	.	6.5µM*	-9%	-19%
O=C(Nc1ccc2c(c1)OCCO2)c1cnc2ccccn2c1=O	.	?	-9%	?
Cc1ccn2c(C(=O)N/N=C\c3ccccc3[N+](=O)[O-])c(C)nc2c1	.	13%	-8%	20%
CCCCOc1ccccc1C1NC(=O)NC(C)=C1C(=O)OCCOC (configuration not stated)	.	-4%	-2%	15%
COc1ccc(S(=O)(=O)NCCSCc2ccco2)cc1C	.	-19%	-14%	-2%
CN(C)CCCCCCCCCCC(=O)/C=N/O	.	-17%	8%	-27%
O=C(c1ccc(COc2ccc3c(c2)CCC3)o1)N1CCN(c2ccccc2)CC1	.	19%	1%	?
Cc1cc([N+](=O)[O-])ccc1NCc1cccc2ccccc12	.	?	-5%	-5%
CCN(CC)CCNC(=O)c1ccc(NC(=O)c2ccc(S(=O)(=O)N3CCCC3)cc2)cc1	1%	.	12%	.
CCOC1CCCc2oc(-c3ccc(OC)cc3)c(C#CCCO)c21 (configuration not stated)	-16%	.	-18%	.
CCCCn1nnnc1C(c1cc2ccccc2o1)N1CCN(C(=O)OCC)CC1 (configuration not stated)	-9%	.	6%	.
CC(=O)Nc1cncc(-c2cccc(C(=O)NCCN(C)C)c2)n1	-14%	.	-16%	.
CCCOc1ccc(F)cc1-c1cc(C(=O)NCc2ccc(F)cc2)[nH]n1	-4%	.	7%	.
C[C@@H]1CCCCO[C@H](CN(C)Cc2ccc3c(c2)OCO3)[C@@H](C)CN([C@H](C)CO)C(=O)c2cc(NC(=O)c3ccccc3)ccc2O1	-25%	.	4%	.
CCOC(=O)c1c(C)[nH]c(C(=O)OCC(=O)N(CC)c2c(N)n(Cc3ccccc3)c(=O)[nH]c2=O)c1C	-16%	.	15%	.
CCCS(=O)(=O)NC(=O)C1(C)CCN(C(=O)c2cc(C)nn2C(C)(C)C)C1 (configuration not stated)	-11%	.	-11%	.
NC(=O)Cc1ccc(OCc2nn[nH]n2)cc1	-1%	.	11%	.
CCOC(=O)[C@]12CCC=C1N(Cc1cccc3ccccc13)C(=O)[C@H](CC(=O)NCc1ccc(OC)c(OC)c1)C2	35µM*	.	-9%	.
CC1=C(C(=O)N(C(C)C)C(C)C)CC(CC(=O)NC2CCCCC2)C(=O)N1Cc1ccccc1 (configuration not stated)	-1%	.	14%	.
CNc1cccc(-c2c(OC)cccc2OC)n1	-11%	.	7%	.
COc1ccc(CN2C[C@@H](CO)O[C@@H](n3cnc4c(N5CCOCC5)ncnc43)C2)cc1	-13%	.	-3%	.
C=CC(C)(C)c1c(O)c(CC=C(C)C)c(O)c2c(=O)c3ccc(O)c(O)c3oc12	?	.	?	.
Cc1ccccc1Cn1c(C)c(C(=O)NCc2ccc(Cl)c(Cl)c2)sc1=O	-19%	.	4%[18.4 µM]	.
Cc1c(NC(=O)c2cc3ccccc3o2)cccc1-n1cnnn1	18%	.	10%	.
CC(C)(CO)CNc1ccn2nccc2n1	-4%	.	5%	.
COc1ccc(CN2C(=O)C(CC(=O)NCc3cccc4ccccc34)CC(C(=O)N3CCOCC3)=C2C)cc1 (configuration not stated)	-18%	.	-11%	.
COc1ccc(C(=O)N2CC(c3ccc(Cl)cc3)CC2=O)cc1 (configuration not stated)	-10%	.	7%	.
CCc1ccc(NC(=O)CSc2nc(C)cs2)cc1	-13%	.	11%	.
CCNC(=O)C1(C)CCCN(CCOc2ccc(Cl)cc2)C1 (configuration not stated)	-21%	.	-5%	.
Cn1c(=O)c2cc(NC(=O)NCCc3ccccc3)ccc2n1Cc1ccc(F)cc1	-15%	.	-8%	.
CN(C)CCN1CCN(C2CN(Cc3cn(Cc4ccc(C(F)(F)F)cc4)nn3)S(=O)(=O)C2)CC1 (configuration not stated)	0%	.	0%	.
CCCOc1ccc(F)cc1-c1cc(C(=O)NCc2ccccc2OC)[nH]n1	-9%	.	6%	.
CCCNC(=O)C1(C)CCN(C(=O)c2cccnc2Oc2ccccc2)C1 (configuration not stated)	-8%	.	-2%[18.4 µM]	.
Cc1cc(NC(=O)C(C)SCC(=O)Nc2cccc(S(=O)(=O)N3CCCCCC3)c2)no1 (configuration not stated)	-21%	.	2%	.
COc1ccc(-n2nnnc2C(c2cc3ccccc3o2)N2CCN(C/C=C/c3ccccc3)CC2)cc1 (configuration not stated)	-15%	.	3%	.

A stretch taken from the entries so far, for reference:
SMILES	StopGo reporter	Marburg entry inh	RE007 growth inh	Lassa entry inh
CC(C)(CO)CNc1ccn2nccc2n1	-4%	.	5%	.
COc1ccc(CN2C(=O)C(CC(=O)NCc3cccc4ccccc34)CC(C(=O)N3CCOCC3)=C2C)cc1 (configuration not stated)	-18%	.	-11%	.
COc1ccc(C(=O)N2CC(c3ccc(Cl)cc3)CC2=O)cc1 (configuration not stated)	-10%	.	7%	.
CCc1ccc(NC(=O)CSc2nc(C)cs2)cc1	-13%	.	11%	.
CCNC(=O)C1(C)CCCN(CCOc2ccc(Cl)cc2)C1 (configuration not stated)	-21%	.	-5%	.
Cn1c(=O)c2cc(NC(=O)NCCc3ccccc3)ccc2n1Cc1ccc(F)cc1	-15%	.	-8%	.
CN(C)CCN1CCN(C2CN(Cc3cn(Cc4ccc(C(F)(F)F)cc4)nn3)S(=O)(=O)C2)CC1 (configuration not stated)	0%	.	0%	.
CCCOc1ccc(F)cc1-c1cc(C(=O)NCc2ccccc2OC)[nH]n1	-9%	.	6%	.
CCCNC(=O)C1(C)CCN(C(=O)c2cccnc2Oc2ccccc2)C1 (configuration not stated)	-8%	.	-2%[18.4 µM]	.
Cc1cc(NC(=O)C(C)SCC(=O)Nc2cccc(S(=O)(=O)N3CCCCCC3)c2)no1 (configuration not stated)	-21%	.	2%	.
COc1ccc(-n2nnnc2C(c2cc3ccccc3o2)N2CCN(C/C=C/c3ccccc3)CC2)cc1 (configuration not stated)	-15%	.	3%	.

(list continues)
SMILES	StopGo reporter	Marburg entry inh	RE007 growth inh	Lassa entry inh
CCOC(=O)[C@]12CCCC=C1N(CCC1=CCCCC1)C(=O)[C@H](CC(=O)NCCCCc1ccccc1)C2	-5%	.	?	.
CN1C(=O)[C@H]2[C@@H](c3ccc(C(F)(F)F)cc3)N[C@]3(CCCN(CC4CCCCC4)C3=O)[C@H]2C1=O	0%	.	-13%	.
CCCCn1c(-c2nonc2NC(=O)c2ccccc2Cl)nc2ccccc21	?	.	12%	.
O=C(NC1CCCCC1)C(CCc1ccccc1)N1CCc2ccccc2C1 (configuration not stated)	5%	.	-19%	.
O=C1[C@H]2[C@@H](c3ccc(C(F)(F)F)cc3)N[C@]3(CCCN(Cc4ccc(Cl)cc4)C3=O)[C@H]2C(=O)N1Cc1ccccc1	?	.	3%	.
N#CCCN(Cc1ccccc1)C(=O)CCC(=O)c1ccc(F)cc1	-9%	.	1%	.
CCCCc1c(Cc2cccc(F)c2)ncn1CCc1ccccc1OC	32µM*	.	-27%	.
C#CCN1C=CC(=O)[C@@H](O)[C@H]1c1ccccc1Br	-11%	.	8%	.
COC(=O)c1cnc(Nc2nc(C(N)COCc3ccccc3)cs2)nc1C(F)(F)F (configuration not stated)	-24%	.	-5%	.
COc1ccc(CN2C(=O)C(CC(=O)NCCN3CCOCC3)CC(C(=O)N(C(C)C)C(C)C)=C2C)cc1 (configuration not stated)	-10%	.	-1%	.
CC(O)(c1ccccc1)c1nc(-c2csc3ccccc23)cs1 (configuration not stated)	-1%	.	9%[18.4 µM]	.
COCCNC(=O)C1(C)CCCN(C(=O)c2cnc3ccccc3n2)C1 (configuration not stated)	-20%	.	-5%	.
CN1CC[C@]2(CCN3CCc4c(oc5ccccc45)[C@@H]3C2)N(C)C1=O	-17%	.	6%[18.4 µM]	.
Cc1c(C(=O)NCc2ccccc2)sc(=O)n1Cc1ccccc1F	-13%	.	5%[18.4 µM]	.
CCc1ccc(/C=C2\SC(=S)N(CCCC(=O)NC3=NCCS3)C2=O)cc1	14µM*	.	-3%	.
C[C@H](O)CNC(=O)c1[nH]cnc1C(=O)N[C@@H](C)c1ccccc1	-22%	.	0%	.
Brc1ccc2c(c1)-c1ccccc1C1=NCCN12	?	.	-7%	.
Nc1nc2c(Br)ccc(Br)c2cc1C(=O)NCCc1ccccc1	-26%	.	-10%	.
O=C(NCC1CCCCC1)c1cc(-c2cc(F)ccc2OCC2CCCO2)n[nH]1 (configuration not stated)	?	.	5%	.
Cc1cc(F)cc(-c2cc(C(=O)NCc3ccco3)[nH]n2)c1	48%[activator]	.	-5%	.
CCCc1nc2ccc(C)cn2c1Cc1ccc(OC)cc1C	20%	.	-17%	.
C[C@H](O)[C@@H]1C(=O)N2CCc3ccc(-c4cccc(F)c4)cc3[C@@H]2C[C@@H]1N(C)C(=O)Nc1ccccc1	-10%	.	-12%	.
O=C(c1cc(Cl)cc(Cl)c1)N1Cc2ccccc2-n2nncc2C1	-13%	.	-4%	.
COC(=O)c1ccc2nc(-c3ccccc3)c(Cc3ccsc3)n2c1	15%	.	-16%	.
CC1(Cc2ccc(Cl)cc2)C(=O)Nc2ccc(-c3ccc(F)c(Cl)c3)cc21 (configuration not stated)	0%	.	-4%	.
CC(C)OC(=O)N(C)C[C@H]1OCc2cnnn2CCCC(=O)N([C@H](C)CO)C[C@H]1C	9%	.	13%	.
COc1ccc(C(O)c2ncc(-c3cccc4ccccc34)[nH]2)cc1F (configuration not stated)	18%	.	-7%	.
CC(=O)N1CCN(Cc2cc(=O)oc3cc(C)ccc23)CC1	-6%	.	6%	.
O=C1NC[C@H](Cc2ccccc2)N(CC2CCN(CCc3ccccc3)CC2)C1=O	-12%	.	-3%	.
CC(C)CC(=O)[C@@H](O)Cc1ccc(O)cc1	-9%	.	7%	.
Cc1ccc(N(C)S(=O)(=O)c2cccc(C(=O)OCC(=O)N(C)Cc3ccccc3)c2)cc1	28µM*	.	-12%	.
CC1(C)CC[C@]2(C(=O)O)CC[C@]3(C)C(=CCC4[C@@]5(C)CC[C@H](O)C(C)(C)C5[C@H](O)C[C@]43C)[C@@H]2C1 (some centres not stated)	?	.	66%	.
Cn1cc(C[C@H](NC(=O)OC(C)(C)C)C(=O)N[C@@H](CO)Cc2ccccc2)c2ccccc21	-18%	.	4%	.
Cc1ccc(-c2cnc(C(O)c3cccc(Cl)c3)[nH]2)cc1 (configuration not stated)	67%[activator]	.	-22%	.
CNC(=O)C[C@H]1C(=O)N(C2CCCCC2)C[C@@H]1c1ccc(Br)cc1	-10%	.	-1%	.
O=C(NC1CCN(Cc2ccccc2)CC1)c1cc(S(=O)(=O)N2CCOCC2)ccc1Cl	-1%	.	5%	.
COC(=O)[C@@]1(Cc2ccc(F)cc2)[C@H]2C(CC(=O)C(=O)N3CCCC3)C(=O)C[C@H]2CN1C(=O)c1ccccc1 (some centres not stated)	?	.	1%	.
COC(=O)c1ccccc1OCc1cc(=O)oc2ccc(C)cc12	-17%	.	0%	.

Looked up above.
StopGo reporter, Cc1ccc(-c2cnc(C(O)c3cccc(Cl)c3)[nH]2)cc1 (configuration not stated) is entered as 67%[activator]
StopGo reporter, O=C(NC1CCN(Cc2ccccc2)CC1)c1cc(S(=O)(=O)N2CCOCC2)ccc1Cl is entered as -1%

An excerpt (hit frequency here may not be typical).
